Source: PubChem (Fisher Drug Discovery Resource Center)
NPYLR7 agonist = activates Aedes aegypti NPYLR7 receptor; HEK293T NPYLR7/Galpha15, GCaMP6s calcium fluorescence; AID 1259423; activation, % at 10 µM; hit rate 0.15% among 270,000; in the data active means activation above about 40%;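 further: 0% = vehicle and 100% = reference agonist at the receptor; some compounds past the cut are filed as inactive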
NPYLR7 agonist max-min = further read-out of NPYLR7 agonist, marked with its call; activation, %; measured here: Max-Min RFU normalised activation; some inactives read as strong as hits;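 span of the calcium signal over five minutes; 0% = vehicle and 100% = native peptide agonist; compound fluorescence can raise it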
* hit, by the source's call; & = joins results of further samples. These rows are one share of the data (hit frequency here may not be typical).

SMILES	NPYLR7 agonist	NPYLR7 agonist max-min
C/C(=C\c1ccccc1)CN(C)C1CCN(C)CC1	0	1
Cc1ccc(C(C)NC(=O)CN2CCN(c3ccc([N+](=O)[O-])c4cnccc34)CC2)cc1C (stereo not drawn)	-3	-4
CCN(Cc1ccc(OC)c(F)c1)C(=O)Cn1c(=O)cnc2ccccc21	3	1
CC1C(OC(=O)c2cccc(OCC(N)=O)c2)CC2CC1C2(C)C (stereo not drawn)	4	3
CCOC(=O)c1csc(CCNc2nc(C)nc3c2cnn3C)n1	-3	-4
CN(C)c1cncc(-c2cccc(-n3cccn3)c2)n1	13	8
CC(C)C(NC(=O)c1ccc(Cl)c(S(=O)(=O)N2CCCCC2)c1)c1cccs1 (stereo not drawn)	10	6
CCC1CN(C(=O)COCC(F)(F)C(F)F)CCN1 (stereo not drawn)	2	-1
CCS(=O)(=O)Oc1ccccc1CN(CCOC)C(C)=O	17	22
CC(C)c1cc(C2CCCN2C(=O)c2cccc3ccnn23)no1 (stereo not drawn)	3	1
CC(/C=N\NC(=O)CSc1nnc(-c2ccccc2)n1-c1ccccc1)=C\c1ccccc1	-5	-12
CCOC(=O)C1(C/C=C/c2ccccc2)CCCN(C(=O)Cc2nonc2C)C1 (stereo not drawn)	0	-3
Cc1ccccc1-c1ccc(-n2cncc2C(=O)NCc2c(F)cccc2F)cc1	-3	-16
CN(Cc1ccccc1)c1cc(-c2ccccc2)nc(SCc2ccc(C(=O)NCc3cccnc3)o2)n1	19	27
CC(=O)c1cccc(S(=O)(=O)N2CCN(C(=O)C3CCCc4ccccc43)CC2)c1 (stereo not drawn)	8	3

Pulled one by one from the list above (four):
SMILES	NPYLR7 agonist	NPYLR7 agonist max-min
CCOC(=O)C1(C/C=C/c2ccccc2)CCCN(C(=O)Cc2nonc2C)C1 (stereo not drawn)	0	-3
CC(=O)c1cccc(S(=O)(=O)N2CCN(C(=O)C3CCCc4ccccc43)CC2)c1 (stereo not drawn)	8	3
C/C(=C\c1ccccc1)CN(C)C1CCN(C)CC1	0	1
CCC1CN(C(=O)COCC(F)(F)C(F)F)CCN1 (stereo not drawn)	2	-1

Next part
SMILES	NPYLR7 agonist	NPYLR7 agonist max-min
COc1ccc(S(=O)(=O)N2CCCC(C)C2)cc1N1CCN(C(=O)C2CCCCC2)CC1 (stereo not drawn)	3	-2
CCOP(=O)(Cc1ccc(NC(=O)c2cccnc2Oc2ccc(Cl)cc2)cc1)OCC	-6	-9
CCc1nn(-c2ccccc2)c(Oc2ccc(OC)cc2)c1CN(CC(O)COc1ccccc1)C1CC1 (stereo not drawn)	-7	2
O=C(Nc1ccccc1)C(c1ccccc1)N1CCN(C(=O)C2CC2)CC1 (stereo not drawn)	0	6
CCOc1ccc(-n2nnc3c(=O)n(Cc4ccccc4)cnc32)cc1	8	11
CC1CN(c2cc(=O)n(-c3cccc(Br)c3)c(=O)[nH]2)CC(C)O1 (stereo not drawn)	2	5
CCNC(=O)c1nc(-c2ccccc2)no1	16	18
O=C1CSC(c2ccc3c(c2)OCO3)N1Cc1ccccc1 (stereo not drawn)	6	4
COc1ccc(OC2CCN(C(=O)C3CC3)CC2)c(C(=O)NC(C)Cc2cccnc2)c1 (stereo not drawn)	6	6
O=C(Cn1nc2c(c1NC(=O)c1ccc([N+](=O)[O-])o1)CSC2)NCc1ccccc1	-5	1
CC(c1ccon1)N(C)CC(=O)Nc1nc2ccccc2[nH]1 (stereo not drawn)	29	19
CCN1CCCC1CNC(=O)CCC1CCN(Cc2ccc(OC)cc2F)CC1 (stereo not drawn)	0	-2
CC(=O)NC(c1ccccc1Cl)c1c(O)ccc2ccccc12 (stereo not drawn)	12	8
CCN(CC)C(=O)Oc1ccc2c(ccn2Cc2cc(OCc3ccccc3)cc(OCc3ccccc3)c2)c1-c1ccc(OC)c(OC)c1	11	2
CC(C(=O)Nc1cccnc1Cl)N1CCC(N2CCOCC2)C1 (stereo not drawn)	3	3
CC(C)NC(=O)CN(C)C(=O)c1ccc(C2SCCCS2)cc1	-7	-7
CCC(C(=O)N(CC(=O)N(CCc1c[nH]c2ccccc12)Cc1ccc(N(C)C)cc1)CC(C)C)c1ccccc1 (stereo not drawn)	24	29
CCN(CC(=O)Nc1ccc(OC(F)F)cc1)Cc1ccc2c(c1)OCO2	3	2
CN(C)c1ccc(CC(=O)N2CCCC(c3cc(C(=O)Nc4ccc(F)c(Cl)c4)no3)C2)cc1 (stereo not drawn)	-3	-4
O=C(CSc1nnc(NC(=O)c2cccc([N+](=O)[O-])c2)s1)c1ccc(Cl)cc1	5	19
CC(=O)N(CN1C(=O)c2ccccc2C1=O)c1ccc(Oc2ccccc2)cc1	5	4
COc1ccc(CC(=O)N2CCN(C(=O)CCN3CCc4sccc4C3c3cccc(F)c3)CC2C)cc1 (stereo not drawn)	6	-6
CCc1nc2n(n1)C(=O)C(C(c1ccc(F)cc1)N1CCC(C(=O)OC)CC1)S2 (stereo not drawn)	0	-1
O=S(=O)(c1cnc[nH]1)N1CCN(c2cccc(Cl)c2)CC1	15	8
CSc1ccc(CN(C)C(=O)CNC(=O)COc2ccccc2)cc1	4	0
O=C(OC(/C=C1/CCCC=C1N1CCOCC1)c1ccccc1)c1ccccc1 (stereo not drawn)	9	18
O=C(NCc1ccccn1)C1CCCN(C2CCN(c3ncnc4[nH]ccc34)CC2)C1 (stereo not drawn)	8	-2
CCCC(=O)Nc1ccc(Cl)c(S(=O)(=O)N2CCCC2)c1	6	2
CCOc1cc(-c2nccn2Cc2cn(C)nc2C)ccc1O	-2	-7
C=C(C)COc1ccc(-c2ncncc2-c2ccccc2OC)c(O)c1	-1	-5

Structural class: those above with a nitro group on carbon
SMILES	NPYLR7 agonist	NPYLR7 agonist max-min
Cc1ccc(C(C)NC(=O)CN2CCN(c3ccc([N+](=O)[O-])c4cnccc34)CC2)cc1C (stereo not drawn)	-3	-4
O=C(Cn1nc2c(c1NC(=O)c1ccc([N+](=O)[O-])o1)CSC2)NCc1ccccc1	-5	1
O=C(CSc1nnc(NC(=O)c2cccc([N+](=O)[O-])c2)s1)c1ccc(Cl)cc1	5	19

The listing continues.
SMILES	NPYLR7 agonist	NPYLR7 agonist max-min
O=C(Cc1ccc(Cl)cc1)N1CCC(n2cnc3cc(C(F)(F)F)ccc32)CC1	-6	-10
CCS(=O)(=O)c1ccc(CC(=O)N(Cc2ccccn2)c2nc3c(F)cccc3s2)cc1	-5	-8
Fc1ccc(N=c2oc3ccc(Br)cc3cc2-c2nc3ccccc3[nH]2)cc1	0	-2
O=C(Cc1ccccc1)N(Cc1ccc2c(c1)OCO2)Cc1cc(Cl)ccc1OCc1nc(CO)cs1	8	16
Cc1ccnc(NCCNC(=O)c2cnn(-c3ccccn3)c2C)c1	4	2
C#CCn1c(C2CC(=O)N(c3ccc(C)cc3C)C2)nc2ccccc21 (stereo not drawn)	-5	-5
CCN(CC)S(=O)(=O)c1ccc(C(=O)Nc2nc(C)c(C(C)=O)s2)cc1	-2	-9
C=CCN(CC(O)Cc1ccccc1)CC1CC(c2ccc(Cl)cc2)=NO1 (stereo not drawn)	-3	6
CC(C(=O)NCc1cnc2c(c1)CCC2)n1cnc2ccccc21 (stereo not drawn)	1	1
CC(C)c1ccc(NC(=O)c2cccnc2Oc2cccc([N+](=O)[O-])c2)cc1	-2	-6
COC(=O)c1cc(OC)c(OC)cc1NC(=O)C1CC2CCC1C2 (stereo not drawn)	3	-3
COc1ccc(-n2cccn2)c([C@@H]2C[C@H](NC(C)=O)C[C@H](CC(C)C)O2)c1	7	0
Cc1ccc(-n2c(=O)[nH]c3c(C(N)=O)nc(CC(C)C)nc32)cc1	3	10
Cc1ccc(F)c(C(=O)N2CCNCC2C(=O)N2CCN(C)CC2)c1Cl (stereo not drawn)	3	1
Cn1ncc([N+](=O)[O-])c1C(=O)Nc1ccc(I)cc1	5	1
O=C(COc1ccc(Cl)c(Cl)c1)Nc1ccc2c(c1)CCO2	8	6
CC(=O)NC(NC(=S)Nc1ccc(C(=O)O)cc1)C(Cl)(Cl)Cl (stereo not drawn)	-12	-19
O=C1CN(C(=O)C(Sc2ccccc2)c2ccccc2)CCN1 (stereo not drawn)	4	3
Cc1cccc(C(=O)NCc2nnc(SCC(=O)N3CCCc4ccccc43)n2-c2cccc(C(F)(F)F)c2)c1	-7	3
Cc1[nH]cnc1C(=O)N1CCN(C2CCc3ccccc3C2)CC1 (stereo not drawn)	1	-13
Cn1c(=S)[nH]c2c(c1=O)C(C)(C)Cc1ccccc1-2	-2	0
CCC1(C)CCCN(C(=O)CCn2c(-c3ccc(OC)cc3)n[nH]c2=S)C1 (stereo not drawn)	2	3
Oc1ccc(C2Oc3ccccc3C3CC(c4cccs4)=NN32)c(O)c1 (stereo not drawn)	19	10
C=c1cc(C)n(CC(=O)Nc2cc(Cl)ccc2C)c(=O)c1=C1N=C(c2ccc3c(c2)OCO3)NO1	-3	-6
Cc1ccc(OCCS(=O)(=O)N2CCn3cncc3C2)cc1	-3	-6
O=c1cc(-c2ccccc2)[nH]c2nc(Cl)ccc12	6	-5
C=C(C)COc1ccccc1C(=O)NCC1CC(=O)N(C2CC2)C1 (stereo not drawn)	-8	-17
c1ccc(C2CSc3ccccc3N2)cc1 (stereo not drawn)	2	-3
Cc1ccc(CN(Cc2ccccc2)C(=O)CNC(C)C)s1	-7	-14
O=C(Cc1coc(-c2ccccc2)n1)NC1CCCC1	3	2
CC(=O)N(C)C1CCN(Cc2ccc(-c3nc(C)c(C)c(=O)[nH]3)cc2)C1 (stereo not drawn)	0	-3
O=C(NC1CCCN(C2CCCCCC2)C1)c1ccc(F)cc1Cl (stereo not drawn)	3	2
CC(CN)COCc1ccccc1 (stereo not drawn)	10	22
COc1cccc(-c2cc(C(=O)N(CCN(C)C)Cc3ccccc3)n3nc(C(C)(C)C)cc3n2)c1	-12&13	-7&9
Cc1nc2ccc(CC(=O)N3[C@@H]4CC[C@H]3CNC(=O)C4)cc2[nH]1	0	-1
O=C(CCc1nnc(-c2ccc(Cl)cc2)o1)NC1C=CCCC1 (stereo not drawn)	0	0
COc1cc(C=NN2CCOCC2)cc(Br)c1O	-4	-5
CCCCN(C(=O)C1CCC1)c1c(N)n(CCC)c(=O)[nH]c1=O	-3	-4
CCCN(CCC)Cc1ccc(C(=O)N2CC=CC2)cc1	-5	-9
COc1cccc(OC)c1-c1cccc(OC(C)C(N)=O)c1 (stereo not drawn)	14	11
Cc1cc(N(C)C)ccc1CNC(=O)c1ccco1	11	9
Cc1ccccc1C(=O)N1C(C(=O)NC(C)c2ccccc2)COC12CCN(C(=O)CC(C)(C)C)CC2 (stereo not drawn)	1	9
Cc1ccc(N2C(=O)CC(N3CCN(c4ccccn4)CC3)C2=O)cc1 (stereo not drawn)	-6	-13
Cc1ccc(C(=O)N2CCc3c(nc(-c4ccccc4)nc3N(C)C)C2)cc1	4	2
COc1cc(OC)cc(C(=O)N2CC(=O)N3CCc4ccccc4C3C2)c1 (stereo not drawn)	-8	5

In another format: entries from further up.
Results follow in this order: NPYLR7 agonist, NPYLR7 agonist max-min
> O=C(OC(/C=C1/CCCC=C1N1CCOCC1)c1ccccc1)c1ccccc1 (stereo not drawn)
 : 9, 18
> O=C(NCc1ccccn1)C1CCCN(C2CCN(c3ncnc4[nH]ccc34)CC2)C1 (stereo not drawn)
 : 8, -2

Remaining list, next part:
SMILES	NPYLR7 agonist	NPYLR7 agonist max-min
O=C1NCCN(Cc2cccc(Oc3ccccc3)c2)C1CC(=O)N1CCSCC1 (stereo not drawn)	7	3
CC(NC(=O)N1CCC[C@@H]1CO)c1cccc(-n2cccn2)c1 (stereo partly drawn)	1	0
COc1ccc(C)cc1NC1CCCN(C(=O)c2ccc(Br)cc2)C1 (stereo not drawn)	7	23
O=C(O)CN1C(=O)/C(=C\c2cccc(OCc3ccccc3)c2)SC1=S	18	9
CCOC(=O)c1ccc(-n2ccc3c(cnc4nc(SCC)nn43)c2=O)cc1	-1	0
Cc1ccc(C(=O)N(Cc2cccnc2)Cc2nccn2Cc2ccc(C(F)(F)F)cc2)cc1	1	12
Cc1cc2sc(C(=O)O)cc2s1	-8	-9
CC1CN(Cc2ccccc2CNC(=O)/C=C/c2nccs2)CC(C)O1 (stereo not drawn)	15	13
Cn1c(=O)[nH]c(=O)c2c1nc(N1CCN(Cc3ccccc3Cl)CC1)n2Cc1ccccc1F	2	3
O=c1[nH]cnc2cc(Cl)ccc12	-5	-5
COC(=O)Cn1c(=O)c2c(nc3n(C4CCCC4)c(C)cn23)n(C)c1=O	-2	1
CN(C)S(=O)(=O)c1ccc(S(=O)(=O)Nc2ccc(F)cc2)cc1	0	-4
CCC1SC2=NC(C)=C(C(=O)OC)C(c3ccccc3Cl)N2C1=O (stereo not drawn)	7	2
CC(C)N(C(=O)Cn1cnc2sc3c(c2c1=O)CCC3)C(C)C	10	15
Cc1cc(O)cc(C)c1Cl	-7	-10
O=C(O)[C@H]1C[C@@H](C(=O)NCc2ccncc2)CN(C(=O)CCC2CCCC2)C1	5	3
O=C(Cn1cc(Br)ccc1=O)NCc1ccco1	-2	1
COc1ccccc1NC(=O)Cn1nc(C2CC2)c2cnn(-c3ccc(F)cc3)c2c1=O	6	3
C=CCNc1ncnc2c1nnn2C	13	8
CN1[C@@H](CCC(=O)NCc2ccco2)CNC(=O)[C@@H]2[C@H]1CCN2CC(C)(C)C	-7	-16
O=C(Cc1ccc(F)cc1)Nc1ccc(SCC(=O)N2CCCC2)nn1	0	-1
c1csc(-c2noc(CSc3nnc4ccccn34)n2)c1	-1	2
